Screens deposited in PubChem BioAssay by Fisher Drug Discovery Resource Center.
NPYLR7 agonist = activates Aedes aegypti NPYLR7 receptor; HEK293T NPYLR7/Galpha15, GCaMP6s calcium fluorescence; activation, % at 10 µM; 270,000 tested, 0.15% active; in the data active = activation above about 40%;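 note: 0% = vehicle and 100% = reference agonist at the receptor; some compounds past the cut are filed as inactive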
NPYLR7 agonist max-min = also measured in NPYLR7 agonist; calls as there; activation, %; measured here: Max-Min RFU normalised activation; some inactives read as strong as hits;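 span of the calcium signal over five minutes; 0% = vehicle and 100% = native peptide agonist; compound fluorescence can raise it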
Numbers without * were called inactive; & = joins results of further samples.

SMILES | NPYLR7 agonist | NPYLR7 agonist max-min
Cc1nn(C)c(=O)c(-c2nnn(CC(=O)N(CC(F)(F)F)C(C)C3CC3)n2)c1C (stereo not given) | 4 | 12
CNS(=O)(=O)CC(=O)NC(c1ccc(Cl)cc1)C(F)(F)F (stereo not given) | -1 | -1
CCn1nc(C)c(CNC(C)Cn2cncn2)c1C (stereo not given) | 0 | -1
COc1ccccc1OCC1c2ccsc2CCN1C(=O)CN(CC1CCCO1)S(=O)(=O)c1ccc(C)cc1 (stereo not given) | -3 | -1
COC(c1ccc(Cl)cc1)C(C)NC(=O)c1ccc(C(N)=O)cc1 (stereo not given) | 5 | 4
CCOC(=O)c1oc(NC(=O)c2sccc2Br)nc1C | -1 | 8
O=C(c1nc2sccn2c1CN1CCCC(c2ccccc2)C1)N1CCCCCCC1 (stereo not given) | -2 | -17
OC(CNCc1ccc(-c2ccccc2Cl)o1)c1ccccc1 (stereo not given) | -5 | -5
CCCNc1nc(SCCC)nc2c1cnn2CCNC(=O)c1cccs1 | 0 | -2
Cc1nc2cccc(C)n2c(=O)c1NC(=O)C(c1ccccc1)c1ccccc1 | 3 | 1
CN(C)C(=O)c1ccc(-c2cc3cnc(Nc4cccc(NS(C)(=O)=O)c4)cc3[nH]2)cc1 | -10 | -13
C=CCC(=O)NCC1CCN(Cc2cccc3nonc23)C1 (stereo not given) | 1 | -1
Cc1ccc(CN(C)C(=O)NC2CC(C)(C)NC(C)(C)C2)c(C)c1 | -5 | -7
O=C(CCc1nnc(Cc2cccc(C(F)(F)F)c2)o1)NCCCOc1cccnc1 | 2 | -2
Cc1ccc(C(=O)/C=C/Oc2ccc3ccccc3c2)cc1 | 19 | 12
Cc1nccn1C1CCCN(C(=O)Cc2cnn(-c3ccccc3)c2)C1 (stereo not given) | 4 | 1
c1cc(CN2C[C@@H]3C4CCC(CC4)[C@@H]3C2)cc(N2CCOCC2)c1 | 9 | 6
CCCc1cc(C(=O)N2CCC3(CN(C)C(=O)O3)C2)cs1 (stereo not given) | 0 | -1
Cc1ccc(S(=O)(=O)N(Cc2nccn2Cc2cc(C)ccc2C)C(C)C)cc1 | 16 | 20
Cc1nc(CN2CCN(Cn3[nH]c(-c4ccc(Cl)cc4)nc3=S)CC2)cs1 | 1 | 0
O=C(Cn1cc(C(F)(F)F)ccc1=O)NC(=O)NCc1ccco1 | 2 | 3
CN1OCC(S(=O)(=O)N(C)Cc2ccco2)C1c1cccc(Oc2ccc(Cl)cc2)c1 (stereo not given) | 5 | 4
O=C(CCC(F)(F)F)N1CCCC(c2nc(-c3cccnc3)ncc2-c2ccccc2F)C1 (stereo not given) | 35 | 18
O=C1Cc2cc(S(=O)(=O)Nc3ccc4c(c3)OCO4)ccc2N1 | 1 | -1
Cc1ccc(C=Nc2ncn[nH]2)c(O)c1 | -18 | -24

Next structures follow.
SMILES | NPYLR7 agonist | NPYLR7 agonist max-min
CCOC(=O)c1cnc(-c2ccncc2)nc1NCc1cccc(C)c1C | 18 | 14
CCOc1ccccc1N1CCN(S(=O)(=O)c2cc(Br)ccc2OCC)CC1 | 4 | -1
O=C1NN(C(=O)Nc2ccc(Br)cc2)[C@@H](c2ccccc2)[C@@H]1c1ccccc1 | -9 | -15
O=C(Cn1c2ccccc2c2ncn(Cc3ccccc3)c(=O)c21)NCc1ccccc1 | 0 | -3
COc1ccc(NC2CCCN(Cc3cn[nH]c3-c3ccccc3)C2)cc1OC (stereo not given) | 3 | -1
CCc1nc(CN(Cc2ccc(Cl)cc2)C2CC2)cs1 | 9 | 5
CS(=O)(=O)c1ccc(-c2cccc3[nH]ccc23)cc1 | -4 | -6
Cc1cc(C)cc(-n2nnc(-c3nnc(-c4ccco4)o3)c2C)c1 | 3 | 5
N#Cc1ccc(S(=O)(=O)NC2CC2)cc1 | 1 | 9
CC(C)(C)NC(=O)CSc1cn(CC(=O)N2CCOCC2)c2ccccc12 | -9 | -9
COc1c2c(cc3occ(-c4ccc5c(c4)OCO5)c(=O)c13)OC(C)(C)C=C2 | -4 | -9
CC(C)[C@H]1CC[C@H](C)C[C@@H]1OCC(=O)NCCCn1ccnc1 | -6 | -12
COc1cc(OC)cc(C(=O)Nc2cc(C)nn2-c2ncnc3c2cnn3-c2ccc(C)cc2C)c1 | 5 | 3
CC1(C)CC(=O)c2sc(NS(C)(=O)=O)nc2C1 | 7 | 5
COCCN(Cc1ccc(OS(C)(=O)=O)cc1)C(=O)c1ccc2c(c1)OCO2 | -2 | 3
CCC(C)N(CC(=O)N(Cc1ccc(F)cc1)Cc1sccc1C)S(=O)(=O)/C=C/c1ccccc1 (stereo not given) | 12 | 11
CCOC(=O)N1CCN(c2ncnc3c2nnn3CC)CC1 | 7 | 1
O=S(=O)(N=C(NS(=O)(=O)c1ccccc1)c1ccccc1)c1ccc2ccccc2c1 | 4 | 2
COc1ccccc1NC(=O)CN1C(=O)SC(=Cc2cccs2)C1=O | 1 | 0
COc1ccc(CN(CC(O)COc2ccccc2)CC2CCCO2)cc1 (stereo not given) | -6 | 3
O=S(=O)(Cc1ccccc1)c1nc2ccccc2n1Cc1ccc(Cl)cc1 | -1 | -6
O=C(O)c1nn(-c2ccccc2)nc1-c1nn(-c2ccccc2)nc1C(=O)O | 3 | 3
O=C(O)CNC(=O)CN1C(=O)CSC1=S | 7 | 7
C(=Nn1c(-c2ccco2)csc1=NCCc1ccccc1)c1ccco1 | -2 | -9
COCC(=O)N1CCN(c2cc(Oc3cc(C)ccc3Cl)ncn2)CC1C (stereo not given) | 10 | 14

Some of the entries above in a different format:
mol,NPYLR7 agonist,NPYLR7 agonist max-min
Cc1nn(C)c(=O)c(-c2nnn(CC(=O)N(CC(F)(F)F)C(C)C3CC3)n2)c1C (stereo not given),4,12
CNS(=O)(=O)CC(=O)NC(c1ccc(Cl)cc1)C(F)(F)F (stereo not given),-1,-1
CCn1nc(C)c(CNC(C)Cn2cncn2)c1C (stereo not given),0,-1
COc1ccccc1OCC1c2ccsc2CCN1C(=O)CN(CC1CCCO1)S(=O)(=O)c1ccc(C)cc1 (stereo not given),-3,-1
COC(c1ccc(Cl)cc1)C(C)NC(=O)c1ccc(C(N)=O)cc1 (stereo not given),5,4
CCOC(=O)c1oc(NC(=O)c2sccc2Br)nc1C,-1,8
O=C(c1nc2sccn2c1CN1CCCC(c2ccccc2)C1)N1CCCCCCC1 (stereo not given),-2,-17
OC(CNCc1ccc(-c2ccccc2Cl)o1)c1ccccc1 (stereo not given),-5,-5
CCCNc1nc(SCCC)nc2c1cnn2CCNC(=O)c1cccs1,0,-2
Cc1nc2cccc(C)n2c(=O)c1NC(=O)C(c1ccccc1)c1ccccc1,3,1
CN(C)C(=O)c1ccc(-c2cc3cnc(Nc4cccc(NS(C)(=O)=O)c4)cc3[nH]2)cc1,-10,-13
C=CCC(=O)NCC1CCN(Cc2cccc3nonc23)C1 (stereo not given),1,-1
Cc1ccc(CN(C)C(=O)NC2CC(C)(C)NC(C)(C)C2)c(C)c1,-5,-7
O=C(CCc1nnc(Cc2cccc(C(F)(F)F)c2)o1)NCCCOc1cccnc1,2,-2
Cc1ccc(C(=O)/C=C/Oc2ccc3ccccc3c2)cc1,19,12
Cc1nccn1C1CCCN(C(=O)Cc2cnn(-c3ccccc3)c2)C1 (stereo not given),4,1
c1cc(CN2C[C@@H]3C4CCC(CC4)[C@@H]3C2)cc(N2CCOCC2)c1,9,6
CCCc1cc(C(=O)N2CCC3(CN(C)C(=O)O3)C2)cs1 (stereo not given),0,-1
Cc1ccc(S(=O)(=O)N(Cc2nccn2Cc2cc(C)ccc2C)C(C)C)cc1,16,20
Cc1nc(CN2CCN(Cn3[nH]c(-c4ccc(Cl)cc4)nc3=S)CC2)cs1,1,0
O=C(Cn1cc(C(F)(F)F)ccc1=O)NC(=O)NCc1ccco1,2,3
CN1OCC(S(=O)(=O)N(C)Cc2ccco2)C1c1cccc(Oc2ccc(Cl)cc2)c1 (stereo not given),5,4
O=C(CCC(F)(F)F)N1CCCC(c2nc(-c3cccnc3)ncc2-c2ccccc2F)C1 (stereo not given),35,18
O=C1Cc2cc(S(=O)(=O)Nc3ccc4c(c3)OCO4)ccc2N1,1,-1
Cc1ccc(C=Nc2ncn[nH]2)c(O)c1,-18,-24
CCOC(=O)c1cnc(-c2ccncc2)nc1NCc1cccc(C)c1C,18,14
CCOc1ccccc1N1CCN(S(=O)(=O)c2cc(Br)ccc2OCC)CC1,4,-1

Back to the main list; the three compounds before the break are reprinted first.
SMILES | NPYLR7 agonist | NPYLR7 agonist max-min
O=C(O)CNC(=O)CN1C(=O)CSC1=S | 7 | 7
C(=Nn1c(-c2ccco2)csc1=NCCc1ccccc1)c1ccco1 | -2 | -9
COCC(=O)N1CCN(c2cc(Oc3cc(C)ccc3Cl)ncn2)CC1C (stereo not given) | 10 | 14
CS(=O)(=O)NCC1CN(c2ccc(F)cc2)C(=O)O1 (stereo not given) | 3 | 8
COc1ccc(Nc2nc(Nc3ccc([N+](=O)[O-])cc3)nc(OC)n2)cc1 | 0 | -10
Cc1cccc(Cn2c(=O)c(C(=O)NCCc3ccccn3)nn(-c3ccc(F)cc3)c2=O)c1 | -1 | 5
CCC(C)NC(=O)c1cc(NC(=O)Nc2ccc(F)c(F)c2)ccc1N1CCCC1 (stereo not given) | -3 | 4
COc1cccc(C=C2N=C(c3ccccc3F)OC2=O)c1OC | 1 | 38
O=C(NCc1cccnc1-n1ccnc1)C(=O)NC1CCCC1 | 10 | 9
O=C(NC(Cn1cccn1)c1ccccc1)c1ccc2nccnc2c1 (stereo not given) | 2 | 2
O=c1[nH]c2cc([N+](=O)[O-])c([N+](=O)[O-])cc2[nH]c1=O | -18&-2 | -22&-28
COc1cccc(-c2nc(C(N)=O)c3[nH]c(=O)n(-c4ccc(OC)cc4OC)c3n2)c1 | 8 | 2
O=C1C(C(c2ccc(F)cc2)N2CCCC2)Sc2nc(-c3ccco3)nn21 (stereo not given) | 3 | 1
Cc1nc2c(=O)n(CC(=O)NCCc3ccccc3)nc(-c3ccccc3)c2s1 | 10 | 9
CCOC(=O)c1cc(-c2ccc(N3CCN(C(=O)Cc4ccccc4)CC3)cc2)n(-c2ccc(F)cc2)n1 | 27 | 20
O=c1ccc(-c2ccccc2)nn1CCCNS(=O)(=O)CCc1ccccc1 | -2 | -1
COc1ccc2c(c1OC)C(=O)OC2CC(=O)c1cc(I)c(O)c(I)c1 (stereo not given) | -5 | -6
CC(SCc1cccc(Cl)c1)C(=O)NC1CC1 (stereo not given) | -3 | 19
CCNc1nc(-c2ccco2)nc2ccccc12 | -1 | 1
CN=c1scc(-c2ccc(C)c(C)c2)n1N=C(C)c1cccnc1 | 8 | 6
COC(=O)c1ccc(-c2noc(CN3CCN(C(=O)C4CCCO4)CC3)n2)cc1 (stereo not given) | 0 | 6
Cc1ccc(CN(C)CC(O)COc2ccc(Cl)cc2)o1 (stereo not given) | 6 | 4
COc1ccc2c(c1)CC1=C2CCC2(C)C1=CCC2OC(C)=O (stereo not given) | 6 | 6
CCc1ccccc1NC(=O)c1cccn(OCc2ccc(F)cc2)c1=O | 4 | 4
C=c1ccccc1=C1N=C(c2cccc(OCc3nc(C(=O)OC)co3)c2)NO1 | 16 | 7
CCOCCCn1c(SCc2c(F)ccc(F)c2Cl)nc2cc(S(=O)(=O)N3CCCC(C)C3)ccc21 (stereo not given) | 13 | 7
C#CCNC(=O)C(C)N1CCN(C(=O)c2cc(Cl)c(Cl)n2C)CC1 (stereo not given) | 5 | 5
COC(=O)C1CCN(C(=O)CCc2ccc(Cl)c(Cl)c2)CC1 | 0 | -1

Remaining list, next part.
SMILES | NPYLR7 agonist | NPYLR7 agonist max-min
O=C(NC1CCC(NC(=O)[C@H]2CCCN2S(=O)(=O)c2ccc([N+](=O)[O-])cc2)CC1)c1ccccc1 (stereo not given in full) | 4 | 16
O=C(Nn1cnc2scc(-c3ccco3)c2c1=O)c1ccccc1 | 2 | 3
CC1(C(=O)NCC2CC2)CCN1C(=O)c1cccc(F)c1 (stereo not given) | 5 | 1
CCOC(=O)CNC(=O)c1ccc(-c2cc(-c3ccccc3)n[nH]2)cc1 | 3 | 15
COCc1c(C(=O)NCc2nc3c(C)c(C)ccc3[nH]2)noc1C | 21 | 13
Cc1nccn1CC1(CNC(=O)CCn2c(C)cc3ccccc32)CC1 | -3 | -8
Cc1ccc(CN(C)C(=O)c2ccc(OC3CCN(S(C)(=O)=O)CC3)c(Cl)c2)o1 | 17 | 9
CC(N)=C(C#N)C(=O)COC(=O)C1=NNC(=O)CC1 | 21 | 13
CCCNc1nc2c(C)cccn2c(=O)c1C=C1SC(=S)N(C(C)C)C1=O | 3 | 7
NCCCC(=O)O | 3&1 | -8&4
COc1cccc(C=NNC(=O)c2[nH]nc3c2CCc2ccccc2-3)c1 | 4 | 4
O=C(C(NC1CCc2c(Cl)cccc21)c1ccccc1)N1CCCCC1 (stereo not given) | -2 | -5
CN(Cc1cccc(F)c1)S(=O)(=O)c1ccc(S(N)(=O)=O)cc1 | 1 | 3
Cc1ccc(C(=O)C(C)Sc2nc(N)cc(N)n2)cc1C (stereo not given) | -3 | 1
COc1ccc(CC(=O)Oc2c(S(=O)(=O)c3ccccc3)c(C)nn2C(C)(C)C)cc1OC | 0 | 1
Cn1cc(CNC(=O)c2cc(CN3CCC(Cc4ccccc4)CC3)on2)cn1 | 0 | -3
CCC(C)NC(=O)C(NC(=O)c1ccccc1Cl)C1CCN(C(=O)c2cccs2)CC1 (stereo not given) | 2 | 3

These rows are one share of the data (hit frequency here may not be typical).
